# Screens (PubChem)
# LASV entry inh – blocks Lassa virus binding to or entry into cells | Lassa virus pseudotype entry inhibition, cell reporter; control for the full effect not named in the record | Potency, µM (series often up to 37.9 µM), for inactives: at the highest dose activity change, negative = inhibition, usual class: inhibitors | hit rate 1.2% among 300,000 | AID 540256; active means well fitted inhibition curve with a large enough effect; inconclusive means small, poorly fitted or top-dose-only effect, or effect the other way; inactive means flat fitted curve, though single readings scatter; tested in HEK293 cells; further: on the % scale 0 is the no-effect control and ±100 the full control effect; nearly all actives have a fitted effect of over 50% in size; luciferase read-out
# RE007 growth inh – less growth of the S. pombe RE007 Vpr strain. Potency, µM (titrated, usually from 92.2 µM), for the others: at the top dose activity change, negative = less growth. AID 651644. S. pombe RE007 Vpr strain, BacTiter-Glo ATP luminescence, 24 h; control for the full effect not named in the record. hit rate 0.21% among 360,000; active = well fitted falling curve with a large enough effect; inconclusive = small, poorly fitted or top-dose-only effect; inactive = no such curve, though single readings can be large or run the other way;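 further: on the % scale 0 is the no-effect control and ±100 the full control effect; nearly all actives have a fitted effect of over 50% in size; the assay follows cell death caused by Vpr and the record does not say whether a fall means rescue or toxicity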
#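 Fission yeast RE007 carrying one integrated HIV-1 vpr copy, seeded at OD 0.01 in PMG+AL medium with 23 nL pinned compound. Grown 24 h at 30 degrees; viability read by BacTiter-Glo luminescence after 5 min.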
# StopGo reporter – FMDV 2A StopGo reporter, luciferase signal; hit rate 1.2% among 410,000; human cells with a luciferase reporter of 2A StopGo recoding; control for the full effect not named in the record; Potency, µM (series often up to 57.9 µM), without a hit: at the highest dose signal change, negative = less light; active = well fitted falling curve with a large enough effect; inconclusive = small, poorly fitted or top-dose-only effect; inactive = no such curve, though single readings can be large or run the other way; tested in HEK293T cells; further: on the % scale 0 is the no-effect control and ±100 the full control effect; nearly all actives have a fitted effect of over 45% in size; luciferase light after 4 h
# Marburg entry inh – Marburg virus entry inhibition; Marburg virus pseudotyped entry inhibition, cell reporter; control for the full effect not named in the record; about a third of the inactives were read at about 46 µM; Potency, µM (doses to about 37.8 µM), inactives show top-dose activity change, negative = inhibition, actives largely listed as inhibitors; hit rate 1.8% among 300,000; active = well fitted inhibition curve with a large enough effect; inconclusive = small, poorly fitted or top-dose-only effect, or effect the other way; inactive = flat fitted curve, though single readings scatter; tested in HEK293 cells; about a fifth of its hits are not listed in these tables; further: on the % scale 0 is the no-effect control and ±100 the full control effect; luciferase read-out
# Cruzain noTriton – cruzain (T. cruzi) inhibition without detergent. purified cruzain, Z-FR-AMC fluorescence, no detergent. Potency, µM, for the others: max response, negative = inhibition, hits mostly inhibitors. hit rate 2.3% among 200,000. AID 1476;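 further: plate controls were enzyme without inhibitor for no effect and buffer without enzyme for full effect; nearly all actives have a fitted effect of over 40% in size; top concentration of the series not given in the record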
# Target sequence (P25779 123-467 limits assumed): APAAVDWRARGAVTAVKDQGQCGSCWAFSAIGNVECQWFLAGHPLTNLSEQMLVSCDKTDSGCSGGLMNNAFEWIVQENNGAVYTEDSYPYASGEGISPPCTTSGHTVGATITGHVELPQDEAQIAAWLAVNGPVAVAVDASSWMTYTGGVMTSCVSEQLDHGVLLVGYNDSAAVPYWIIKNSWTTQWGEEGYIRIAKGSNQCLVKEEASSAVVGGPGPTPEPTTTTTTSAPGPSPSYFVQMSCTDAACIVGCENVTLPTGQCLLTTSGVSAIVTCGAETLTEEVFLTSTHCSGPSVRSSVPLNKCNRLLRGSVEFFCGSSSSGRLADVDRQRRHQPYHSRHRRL
#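 Purified cruzain at 1.5 nM, pre-incubated 15 min with compound at room temperature in 100 mM sodium acetate pH 5.5, 5 mM DTT, 0.00005% Triton X-100. Reaction started with 2 uM Z-FR-AMC; AMC fluorescence increase over 60 s gives rate.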
# NS1 function inh – influenza NS1 inhibition; AID 2326; Potency, µM (doses to about 46.1 µM), without a hit: top-dose activity, positive = more growth; S. cerevisiae slowed by influenza A NS1, growth recovery by OD600; hit rate 0.4% among 270,000; active means well fitted rising curve with a large enough effect; inconclusive means small, poorly fitted or top-dose-only effect; inactive means no such curve, though single readings can be large or run the other way; further: nearly all actives have a fitted effect of over 50% in size
#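 Growth recovery, yeast-based: influenza A NS1 expressed in S. cerevisiae causes slow growth, and suppressors are detected by OD600. The parent strain without NS1 is used as positive control.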
# SARS PLP yeast – blocks SARS-CoV papain-like protease in a yeast assay; S. cerevisiae expressing SARS-CoV PLpro, growth rescue; control for the full effect not named in the record; Potency, µM (series often up to 32.9 µM), inactives show at the highest dose activity, positive = growth rescue; hit rate 0.19% among 330,000; AID 485353; active means well fitted rising curve with a large enough effect; inconclusive means small, poorly fitted or top-dose-only effect; inactive means no such curve, though single readings can be large or run the other way; further: 0% is about no effect; nearly all actives have a fitted effect of over 55% in size; growth read by luminescence after 48 h
# Cruzain inh Det – inhibitors of Trypanosoma cruzi cruzain with detergent | P25779 | purified cruzain, Z-FR-AMC fluorescence, 0.01% Triton | Potency, µM, without a hit: max response, negative = inhibition, usual class: inhibitors | hit rate 0.43% among 200,000;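 further: plate controls were neutral wells for no effect and buffer without enzyme for full effect; nearly all actives have a fitted effect of over 40% in size; top concentration of the series not given in the record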
#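 Z-FR-AMC hydrolysis (2 uM substrate) by cruzain (1.5 nM) monitored kinetically at ex 360/em 450 nm after 15 min room-temperature compound exposure; 0.01% Triton X-100, pH 5.5, 5 mM DTT.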
# Numbers without * were called inactive; ? = inconclusive; / = no result given; [ ] = remark or other dose. Unless noted, the call rests on the fitted dose curve; in most records, active means well fitted curve in the direction sought with a large enough effect; inconclusive means small, poorly fitted or top-dose-only effect, or another doubt; inactive means no such curve, though single readings can be large; an effect the other way counts as inactive or inconclusive. Potency means the concentration at half of the fitted maximal effect. Outcome played no part in choosing rows; any-hit rate near 4.7%.
# The opening 7 records (preview)
SMILES,LASV entry inh,RE007 growth inh,StopGo reporter,Marburg entry inh,Cruzain noTriton,NS1 function inh,SARS PLP yeast,Cruzain inh Det
S=C(NCc1ccccc1)NCc1ccccc1,2%,-1%,/,6%,-7%,-18%,8%,4.0%
CCC(=O)Nc1cccc(C(=O)/C=C/c2ccccc2)c1,10µM*,-37%,18µM*,?,-7%,-114%,-27%,5.5%
Cc1ccc(O)c(C(=O)c2cnc3c(c2)c(C)nn3-c2ccccc2)c1,-20%,6%,-3%,?,?,7%,-15%,-8.0%
COc1cc([N+](=O)[O-])ccc1NC(=S)NCc1ccccn1,-2%,-9%,11%,-27%,-2%,13%,-7%,-3.2%
CCc1ccccc1NC(=O)CN(C)C(=O)Cn1cc(C(F)(F)F)cc(Cl)c1=O,2%,4%,8%,4%,/,/,0%,/
CCN(CC)S(=O)(=O)c1ccc(NC(=O)c2ccc(Sc3nncn3C)c([N+](=O)[O-])c2)cc1,?,20%,-28%,-4%,20%,-9%,20%,-6.8%
Cc1ccc(C)c(N2CCN(C(=O)NCc3noc4ccc(C)cc34)CC2)c1,?,/,?,/,0%,/,/,-9.0%

# This part in full (from the top)
SMILES,LASV entry inh,RE007 growth inh,StopGo reporter,Marburg entry inh,Cruzain noTriton,NS1 function inh,SARS PLP yeast,Cruzain inh Det
S=C(NCc1ccccc1)NCc1ccccc1,2%,-1%,/,6%,-7%,-18%,8%,4.0%
CCC(=O)Nc1cccc(C(=O)/C=C/c2ccccc2)c1,10µM*,-37%,18µM*,?,-7%,-114%,-27%,5.5%
Cc1ccc(O)c(C(=O)c2cnc3c(c2)c(C)nn3-c2ccccc2)c1,-20%,6%,-3%,?,?,7%,-15%,-8.0%
COc1cc([N+](=O)[O-])ccc1NC(=S)NCc1ccccn1,-2%,-9%,11%,-27%,-2%,13%,-7%,-3.2%
CCc1ccccc1NC(=O)CN(C)C(=O)Cn1cc(C(F)(F)F)cc(Cl)c1=O,2%,4%,8%,4%,/,/,0%,/
CCN(CC)S(=O)(=O)c1ccc(NC(=O)c2ccc(Sc3nncn3C)c([N+](=O)[O-])c2)cc1,?,20%,-28%,-4%,20%,-9%,20%,-6.8%
Cc1ccc(C)c(N2CCN(C(=O)NCc3noc4ccc(C)cc34)CC2)c1,?,/,?,/,0%,/,/,-9.0%
Cc1ccnc(N2CCC(C(=O)NNC(=O)c3ccccc3)CC2)n1,0%,-1%,/,-3%,6%,13%,8%,3.8%
CN1CCN(C(=S)SCC(=O)N2CCCc3ccccc32)CC1,0%,-12%,-14%,20%,/,7%,-2%,/
NC(=O)CCN1CCN(C(=O)c2ccc3nc(Cc4cccc(Cl)c4)oc3c2)CC1,?,3%,1%,10%,/,-8%,-1%,/
COC(=O)CC1COc2ccccc2N1C(=O)c1ccc(OC)cc1 (configuration not stated),-3%,-7%,-6%,5%,-6%,9%,0%,2.2%
O=C(COC(=O)/C=C/c1ccc2c(c1)OCO2)Nc1ccccc1,-9%,-21%,45%[activator],30%[46.1 µM],/,/,0%,/
O=C(N/N=C/c1ccncc1)C1C2CCCCCCC21 (configuration not stated),-3%,/,19%,-13%,-6%,-14%,-17%,-4.2%
COc1ccc2c(c1)[nH]c1c(=O)n(/N=C/c3ccc(OC)c(CN4CCCC4)c3)cnc12,/,-7%,-19%,/,/,3%,-1%,/
COc1ccccc1Sc1ccccc1CC(C)N (configuration not stated),?,-14%,-24%,?,-3%,5%,-19%,4.3%
Cc1ccc(C(C)C)c(OCC(=O)Nc2c(C(=O)c3ccc(F)cc3)oc3ccccc23)c1,-6%[46.1 µM],/,-3%,?,14%,/,/,-0.5%
N#Cc1c(-c2ccccc2)nc(SCC(=O)N2c3ccccc3Sc3ccccc32)[nH]c1=O,/,21%,-19%,/,/,?,0%,/
O=C1CC(c2ccccc2)NC(=O)N1 (configuration not stated),-3%,-1%,-5%,-3%,-2%,4%,7%,-1.1%
CC12C=CC(=O)C=C1CCC1C3CCC(O)(C(=O)CO)C3(C)CC3OC312 (configuration not stated),-11%,0%,1%,6%[46.1 µM],/,-1%,0%,/
CC(OC(=O)c1cccc(S(=O)(=O)N2CCCCC2)c1)C(=O)NCC1CCCCC1 (configuration not stated),-3%,-7%,9%,-1%[46.1 µM],/,/,-9%,/

# Quoted at random: two entries already listed
SMILES,LASV entry inh,RE007 growth inh,StopGo reporter,Marburg entry inh,Cruzain noTriton,NS1 function inh,SARS PLP yeast,Cruzain inh Det
N#Cc1c(-c2ccccc2)nc(SCC(=O)N2c3ccccc3Sc3ccccc32)[nH]c1=O,/,21%,-19%,/,/,?,0%,/
O=C(COC(=O)/C=C/c1ccc2c(c1)OCO2)Nc1ccccc1,-9%,-21%,45%[activator],30%[46.1 µM],/,/,0%,/

# (further entries)
SMILES,LASV entry inh,RE007 growth inh,StopGo reporter,Marburg entry inh,Cruzain noTriton,NS1 function inh,SARS PLP yeast,Cruzain inh Det
C=COCCCNc1ncnc2sc(-c3ccccc3)cc12,/,-3%,?,/,/,1%,-1%,/
O=C(CN1CCCCCC1)Nc1ccc(Br)cc1,21%[14.3 µM],-5%,31%[activator],-21%,-6%,2%,12%,2.5%
CC1CCN(c2ccc(C(=O)NCCc3ccccc3)cn2)CC1,-30%,5%,/,9%,-11%,-53%,-1%,-4.6%
O=C(N/N=C(/c1ccccc1)c1ccncc1)c1ccc2c(c1)OCO2,-10%,18%,-9%,-29%,3%,-2%,10%,-5.1%
O=C(C1=C[C@@H](C2CC2)C[C@@H](OCCCCO)O1)N1CCOCC1,/,2%,-9%,/,/,4%,-1%,/
CS(=O)(=O)N(CC(=O)NCC1CCCO1)c1cccc(Cl)c1 (configuration not stated),8%,-4%,4%,-3%[46.1 µM],/,-35%,-4%,/
CCCOc1ccc(-c2nonc2NC(=O)c2ccco2)cc1OCCC,-4%[46.1 µM],/,0%,-2%[46.1 µM],-10%,/,/,-3.8%
CCOc1ccc(C(=O)N2CCN(c3cccc(C)c3C)CC2)cc1,-27%,-22%,7%,-7%,3%,-35%,/,-2.2%
Nc1ncn(C23CC4CC(CC(C4)C2)C3)n1,4%,-17%,-7%,0%,14%,3%,-5%,-10%
Cc1ccc(Cl)cc1N(C)C(=O)Cn1nc(Cc2cccnc2)c2ccccc2c1=O,-13%[46.1 µM],/,-12%,-18%[46.1 µM],14%,/,/,-3.0%
Cc1ccc(S(=O)(=O)N2CCC(=O)N([C@H](COCc3ccc(C(F)(F)F)cc3)Cc3ccccc3)CC2)cc1,/,5%,-21%,/,2%,/,/,7.8%
CC1(C)Cc2c(C#N)c(NCCO)nc(-c3ccco3)c2CO1,-4%,-13%,-18%,10%[14.2 µM],/,5%,1%,/
O=C(NNS(=O)(=O)c1ccc(F)cc1)c1ccccc1O,/,-8%,66%[activator],/,/,29%,4%,/
COc1ccc(OCC(=O)N2CCN(Cc3nc4cc([N+](=O)[O-])ccc4n3C)CC2)cc1,-14%,-2%,0%,-2%,-8%,-15%,7%,-6.7%
Nc1nc(NCc2ccccc2)nc(-c2ccccc2)n1,-7%,1%,/,6%,3%,-75%,-6%,-11%
Cc1nc(-c2cccc(F)c2)sc1CCNC(=O)Cc1ccc(F)cc1,0%[46.1 µM],/,-9%,/,21%,/,/,-8.0%
O=C(NC1CCCCC1)c1ccc2c(=O)n(CC3CCCO3)c(=O)[nH]c2c1 (configuration not stated),-11%,-1%,-13%,11%[46.1 µM],3%,-6%,0%,3.6%
O=C(Nc1ncc(Cc2ccccc2)s1)C1=NCCN1,-8%,-2%,38%[activator],-13%[46.1 µM],/,-5%,-2%,/
Cc1c(C(=O)N2CCOCC2)oc2c1C(=O)CC(C)(C)C2,33%[14.3 µM],8%,12%,21%,0%,5%,-1%,8.5%
CCOc1ccccc1Nc1cc(C)nc2nc(C)nn12,/,14%,-18%,/,12%,?,-7%,-3.2%

# The final 2 records of the section before come first, to join the parts.
SMILES,LASV entry inh,RE007 growth inh,StopGo reporter,Marburg entry inh,Cruzain noTriton,NS1 function inh,SARS PLP yeast,Cruzain inh Det
Cc1c(C(=O)N2CCOCC2)oc2c1C(=O)CC(C)(C)C2,33%[14.3 µM],8%,12%,21%,0%,5%,-1%,8.5%
CCOc1ccccc1Nc1cc(C)nc2nc(C)nn12,/,14%,-18%,/,12%,?,-7%,-3.2%
CCOc1cc(/C=N/NC(=O)CNc2cccc(C)c2)ccc1OC(=O)c1ccccc1,16µM*,3%,-19%,7%,-21%,27%,-5%,-0.1%
O=C(CCN1C(=O)C2C3C=CC(C4CC34)C2C1=O)Oc1cccc2cccnc12 (configuration not stated),-20%,14µM*,-26%,16µM*,-7%,-62%,-17%,0.5%
CC(CNC(=O)CN1C(=O)NC2(CCCCC2C)C1=O)c1ccccc1 (configuration not stated),6%,-18%,15%,-18%,/,/,2%,/
Nc1ccc(Cn2ccc3c4c(N)nc(N)nc4ccc32)cc1,?,-16%,?,?,/,/,/,/
Cc1ccc(-c2nnc3ccc(SCC(=O)NCc4ccco4)nn23)cc1,10%,-2%,10%,13%,-5%,1%,3%,3.0%
O=C(Nc1ccccc1Cl)c1cccc(NC(=O)c2cccs2)c1,-7%,-4%,-2%,-18%,/,-74%,-11%,/
COc1ccc(CN2CCN(c3ccccn3)CC2)c(OC)c1,-4%,12%[3.69 µM],-20%,-6%,6%,-3%,2%,0.3%
Cc1ccc2nc(N3CCN(c4ccc(F)cc4)CC3)c3nnnn3c2c1,8%[46.1 µM],/,-12%,/,-10%,/,/,-1.6%
O=C(/C=C/c1c(F)cccc1Cl)c1ccc(F)cc1,-10%,?,-16%,15%,-10%,-6%,14%,-5.1%
COc1ccc(-c2cnn3cc(-c4cccc(Cl)c4)cnc23)cc1,/,2%,6%,/,/,14%,-2%,/
CN1C(=O)CC(N2CCN(CC(N)=O)CC2)C1=O (configuration not stated),-2%,-20%,-4%,-7%,11%,5%,-3%,2.5%
